HNF4A DNA FP: change in binding of human HNF4A to DNA, primary screen, biochemical, fluorescence polarization, FITC-DNA | 1 h | 360,000 compounds, 0.3% hits | activity change, % at 10 µM | Hepatocyte nuclear factor 4-alpha (Homo sapiens), P41235; in the data active means activity change above about 30%, passing the limit was not always enough;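 further: controls were the assay level and a saturating level of protein; the project sought stronger binding though the title names inhibitors; some compounds called inactive have numbers as strong as hits; positive values seem to mean higher polarization but the record does not say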
Target sequence (P41235 whole entry, looked up): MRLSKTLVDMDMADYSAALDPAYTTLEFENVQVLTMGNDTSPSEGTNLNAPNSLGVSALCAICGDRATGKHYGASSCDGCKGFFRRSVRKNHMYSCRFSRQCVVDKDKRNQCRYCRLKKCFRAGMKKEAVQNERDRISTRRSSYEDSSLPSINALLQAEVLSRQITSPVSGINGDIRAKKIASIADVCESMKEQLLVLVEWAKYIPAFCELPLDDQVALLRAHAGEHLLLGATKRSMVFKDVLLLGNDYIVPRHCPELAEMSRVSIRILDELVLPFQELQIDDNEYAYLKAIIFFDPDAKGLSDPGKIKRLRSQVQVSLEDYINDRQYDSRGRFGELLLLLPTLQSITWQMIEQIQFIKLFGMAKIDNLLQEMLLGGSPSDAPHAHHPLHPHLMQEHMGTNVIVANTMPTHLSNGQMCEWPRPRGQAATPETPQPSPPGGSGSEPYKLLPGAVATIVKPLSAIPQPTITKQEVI
Vif A3G: inhibitors of Vif binding to APOBEC3G peptide, primary screen, biochemical, TR-FRET, GST-Vif 1-94, biotin-A3G peptide, dose response retest (AID 1117319); Virion infectivity factor (Human immunodeficiency virus type 1 group M subtype B (isolate …; TR-FRET GST-Vif / biotin-A3G peptide binding; higher % means a stronger effect; test concentration not given here; strong numbers were not always called active; inhibition, %; hits with a dose series show IC50 in µM; 260,000 compounds, 0.57% hits;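 active means above the screen mean plus three standard deviations and confirmed in dose response; inconclusive means results disagree or hit not tested in dose response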;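 further: Vif residues 1-94 fused to GST binding biotinylated APOBEC3G peptide 110-148; 0% = full assay without inhibitor and 100% = GST in place of GST-Vif; retest series ran down from 100 µM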
Ecoli growth: E. coli growth inhibition, primary screen, OD600 | 330,000 compounds, 0.21% hits | OD600 absorbance (concentration not given with the values) | Escherichia coli growth, 23 h; active compounds read low | AID 1053175, 2014;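 active means OD600 absorbance below the run mean of sample wells minus 3.6 SD, in any replicate, cut at about 0.56 in these data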;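 further: stock transfer was 300 nL into about 60 µL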
Ecoli rRNA inh: reduced GFP signal of wild-type E. coli, primary screen, bacterial rRNA inhibitor project, GFP/RFP fluorescence, OD600, single point | 350,000 compounds, 1.6% hits | GFP signal change (wild-type ribosome), % (test concentration not listed) | AID 720706, 2013 | E. coli WT GFP vs humanized-ribosome RFP mutants, 24 h; active compounds read low; DMSO median 0, no signal -100;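 active means significant combined selectivity score with lowered wild-type GFP, culture density cut under 30%, mutant RFP and density less affected; inactive means any of these conditions unmet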; further: one replicate is shown; some compounds called inactive have numbers as strong as hits
ALR H2O2 inh: inhibitors of human ALR sulfhydryl oxidase, primary screen, biochemical, H2O2 detection, HRP-luminol luminescence, single point. 290,000 compounds, 3.8% hits. inhibition, % (concentration not given with the values). purified ALR, DTT oxidation. AID 485317, 2010;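 active means mean and each replicate at 75% or more; inconclusive means only one of the two met; inactive means neither met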;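 further: stock transfer was 7.5 nL into about 7.5 µL; 0% = neutral wells and 100% = wells with inactivated enzyme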
Target sequence (P55789 whole entry, looked up): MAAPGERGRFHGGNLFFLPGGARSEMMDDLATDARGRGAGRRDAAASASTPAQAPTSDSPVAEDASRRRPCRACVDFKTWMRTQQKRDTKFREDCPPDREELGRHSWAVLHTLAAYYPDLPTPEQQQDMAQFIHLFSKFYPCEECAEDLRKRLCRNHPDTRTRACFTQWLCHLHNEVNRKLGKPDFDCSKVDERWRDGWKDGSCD
MLL AF4-AF9 inh: inhibitors of AF4 peptide binding to AF9, primary screen, biochemical, AlphaScreen, biotin-AF4 peptide, FLAG-AF9, single point; Protein AF-9 (Homo sapiens), P42568; inhibition, % at 10 µM; 350,000 compounds, 0.47% hits;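 active means every replicate reaching a set inhibition limit, whatever the replicate mean, cut at about 25% in these data; inconclusive means mean inhibition reaches that limit but some replicates miss it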;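 further: 0% = plate neutral control median and 100% = total signal loss; the record names both 10 and 1 µM as test concentration; the first replicate is given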
FGF22 binding: binders of human FGF22 protein, primary screen, FGF22 synaptogenesis inhibitor project, biophysical, thermal shift, single point. Fibroblast growth factor 22 (Homo sapiens), Q9HCT0. recombinant FGF22 thermal shift, SYPRO orange fluorescence; percent of sucrose octasulfate shift, DMSO zero. calls only at 9.99 µM. 340,000 compounds, 1.5% hits. AID 651658, 2012;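 active means melting point raised past a set limit in the mean and every replicate; inconclusive means no clear call; three in four hits are not shown here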
Target sequence (Q9HCT0 whole entry, looked up): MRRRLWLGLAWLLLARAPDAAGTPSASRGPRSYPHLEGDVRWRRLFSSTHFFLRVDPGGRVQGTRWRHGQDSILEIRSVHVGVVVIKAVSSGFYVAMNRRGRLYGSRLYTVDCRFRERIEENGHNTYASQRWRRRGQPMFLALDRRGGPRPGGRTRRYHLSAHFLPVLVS
Ecoli rRNA inh OD600: also measured in Ecoli rRNA inh; calls as there; OD600 change, %; measured here: OD600 growth;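 optical density of the mix in the first replicate; 0 = DMSO median and -100 = no signal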
Ecoli rRNA inh RFP: also measured in Ecoli rRNA inh; calls as there; RFP signal change, %; measured here: RFP humanized mutant strains;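 first replicate; 0 = DMSO median and -100 = no signal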
An asterisk follows results filed as active; & = joins results of further samples. A portion of the library, so the mix of outcomes need not match the whole.

What do the screens show for `CC(C)CC(C(=O)NC1CCCC1)N(Cc1cccs1)C(=O)c1snc(C(N)=O)c1N` (centres undefined)?
HNF4A DNA FP: -0.5; Vif A3G: 16%; Ecoli growth: 0.72

Results for CCOC(=O)Cn1cc(Cl)cc(C(=O)Nc2ccccc2)c1=O ?
HNF4A DNA FP: 1.1; Vif A3G: -1%; Ecoli growth: 0.68; Ecoli rRNA inh: -1; ALR H2O2 inh: 0; MLL AF4-AF9 inh: 1.0; FGF22 binding: inactive; Ecoli rRNA inh OD600: -2; Ecoli rRNA inh RFP: 1.1

How did O=C(NC(=S)Nc1ccccc1N1CCCC1)c1ccco1 do in these assays?
HNF4A DNA FP: -30; Ecoli rRNA inh: 8; ALR H2O2 inh: inconclusive; MLL AF4-AF9 inh: 11; FGF22 binding: inactive; Ecoli rRNA inh OD600: 3; Ecoli rRNA inh RFP: 7.0

How did CCS(=O)(=O)N1[C@H](CO)[C@@H](c2ccccc2)C12CN(C(=O)c1ccccc1F)C2 do in these assays?
Ecoli rRNA inh: 1; MLL AF4-AF9 inh: -3.2; FGF22 binding: inactive; Ecoli rRNA inh OD600: 2; Ecoli rRNA inh RFP: -0.4

What do the screens show for `O=C(COC(=O)c1ccc2ccccc2c1O)NCc1ccccc1`?
HNF4A DNA FP: 0.2; Ecoli growth: 0.72; Ecoli rRNA inh: 2; ALR H2O2 inh: -71; MLL AF4-AF9 inh: -1.8; FGF22 binding: inactive; Ecoli rRNA inh OD600: 0; Ecoli rRNA inh RFP: 0.4

Results for CCCC(=O)Nc1ccc2c(c1)C(=O)N(C)C[C@H](OC)[C@H](C)CN(C(=O)c1cnccn1)[C@@H](C)CO2 ?
Ecoli rRNA inh: 3; MLL AF4-AF9 inh: 2.1; FGF22 binding: inactive; Ecoli rRNA inh OD600: 9; Ecoli rRNA inh RFP: -1.8

What do the screens show for `Cc1sc2nc(COC(=O)c3ccc(N4CCCC(C)C4)c([N+](=O)[O-])c3)[nH]c(=O)c2c1C` (centres undefined)?
HNF4A DNA FP: 2.6; Vif A3G: 15%; ALR H2O2 inh: 2

How did COc1ccc(NC(=O)c2cccc(-n3c(C)ccc3C)c2)c(OC)c1 do in these assays?
HNF4A DNA FP: 8.9; Ecoli growth: 0.69; ALR H2O2 inh: 1; MLL AF4-AF9 inh: -0.9; FGF22 binding: inactive

How did CCCCCCCCN1C(=O)[C@@H](CC(=O)NCc2cccc3ccccc23)C[C@@]2(C(=O)OC)C1=C[C@H](C(C)(C)C)O[C@@H]2C do in these assays?
Ecoli rRNA inh: 7; MLL AF4-AF9 inh: 0.1; FGF22 binding: inactive; Ecoli rRNA inh OD600: 8; Ecoli rRNA inh RFP: 2.2

How did CC(C)Cc1nn2c(=O)cc(COc3ccc(NC(=O)c4ccco4)cc3)nc2s1 do in these assays?
HNF4A DNA FP: 2.5; Vif A3G: -2%; Ecoli growth: 0.68; Ecoli rRNA inh: 2; ALR H2O2 inh: 1; MLL AF4-AF9 inh: -7.2; FGF22 binding: inactive; Ecoli rRNA inh OD600: 3; Ecoli rRNA inh RFP: -2.6

Results for O=C(NCCCCCCNC(=O)N1CCCCCC1)N1CCCCCC1 ?
HNF4A DNA FP: 6.6; Vif A3G: -5%; Ecoli growth: 0.72; ALR H2O2 inh: 2

How did CN(c1ccccc1)S(=O)(=O)c1cccc(NC(=O)CN2C(=O)NC3(CCCCC3)C2=O)c1 do in these assays?
HNF4A DNA FP: -3.8; Vif A3G: -1%; Ecoli rRNA inh: -3; ALR H2O2 inh: -1; MLL AF4-AF9 inh: -1.0; FGF22 binding: inactive; Ecoli rRNA inh OD600: -2; Ecoli rRNA inh RFP: -3.2

What do the screens show for `Cc1ccc(Oc2nc3ccccc3n3c(C)nnc23)c(C)c1`?
HNF4A DNA FP: -0.3; Vif A3G: -2%; Ecoli growth: 0.69; ALR H2O2 inh: 2

Results for C[C@H]1CCCCO[C@H](CN(C)Cc2ccc3c(c2)OCO3)[C@@H](C)CN([C@@H](C)CO)C(=O)c2cc(NC(=O)c3ccccc3)ccc2O1 ?
Ecoli rRNA inh: -7; MLL AF4-AF9 inh: 6.9; FGF22 binding: inactive; Ecoli rRNA inh OD600: 2; Ecoli rRNA inh RFP: 0.9

How did Fc1ccc(-c2nnc(CN3CCN(c4ncc(C(F)(F)F)cc4Cl)CC3)o2)cc1 do in these assays?
HNF4A DNA FP: -0.1; Vif A3G: -5%; Ecoli growth: 0.7; ALR H2O2 inh: 6

What do the screens show for `O=c1c2ccccc2nc(SCc2ccccc2)n1CC1CCCO1` (centres undefined)?
HNF4A DNA FP: 0.3; Vif A3G: 0%; Ecoli growth: 0.7; Ecoli rRNA inh: -21*; ALR H2O2 inh: 2; MLL AF4-AF9 inh: -6.6; FGF22 binding: inactive; Ecoli rRNA inh OD600: -8.3*; Ecoli rRNA inh RFP: 1.0*

Results for COc1ccc(C)cc1NS(=O)(=O)c1ccc2c(c1)NC(=O)C(C)S2 (centres undefined) ?
HNF4A DNA FP: 1.8; Vif A3G: -4%; Ecoli growth: 0.69; Ecoli rRNA inh: -1; ALR H2O2 inh: 1; MLL AF4-AF9 inh: 2.3; FGF22 binding: inactive; Ecoli rRNA inh OD600: -27; Ecoli rRNA inh RFP: 5.1

How did OCCN1CCN(CCCN2c3ccccc3CCc3ccccc32)CC1 do in these assays?
HNF4A DNA FP: 0.5; Vif A3G: -2%; Ecoli rRNA inh: 3; MLL AF4-AF9 inh: 3.8; FGF22 binding: inactive; Ecoli rRNA inh OD600: -4; Ecoli rRNA inh RFP: 5.4

Results for COc1ccc(-n2c(Cc3cccn3C)nnc2SCC(=O)Nc2cc(C)cc(C)c2)cc1 ?
HNF4A DNA FP: 2.8; Vif A3G: 2%&-3%; Ecoli growth: 0.73; Ecoli rRNA inh: -2; MLL AF4-AF9 inh: 9.1; FGF22 binding: inactive; Ecoli rRNA inh OD600: 3; Ecoli rRNA inh RFP: 4.0

How did CC(C)CN1C(=O)C(=O)N(CC(=O)c2ccc3c(c2)OCO3)C1=O do in these assays?
HNF4A DNA FP: -0.7; Vif A3G: -4%; Ecoli growth: 0.64; Ecoli rRNA inh: 2; MLL AF4-AF9 inh: 0.6; FGF22 binding: inactive; Ecoli rRNA inh OD600: 4; Ecoli rRNA inh RFP: 2.5

Results for O=C(O)C1=C[C@H](c2cccs2)C[C@H](OCCCCO)O1 ?
HNF4A DNA FP: -0.8; Vif A3G: 11%; Ecoli rRNA inh: 5; MLL AF4-AF9 inh: 2.3; FGF22 binding: inactive; Ecoli rRNA inh OD600: 7; Ecoli rRNA inh RFP: 2.9

How did CCOc1ccc(-c2ccc(SCc3ccccn3)nn2)cc1 do in these assays?
HNF4A DNA FP: 1.5; Vif A3G: 13%; Ecoli growth: 0.67; Ecoli rRNA inh: -24; ALR H2O2 inh: -16; MLL AF4-AF9 inh: 0.3; Ecoli rRNA inh OD600: -21; Ecoli rRNA inh RFP: -2.3

How did CN(C)C(=O)c1cccc(-c2ccccc2[C@@H]2[C@H](C#N)N(C(=O)C3CC3)[C@H]2CO)c1 do in these assays?
Ecoli rRNA inh: 3; MLL AF4-AF9 inh: -1.6; FGF22 binding: inactive; Ecoli rRNA inh OD600: 5; Ecoli rRNA inh RFP: -3.4

What do the screens show for `Cc1ccccc1CSCCNC(=O)c1ccccc1`?
HNF4A DNA FP: -0.6; Vif A3G: -11%; Ecoli growth: 0.65; ALR H2O2 inh: -9

What do the screens show for `COc1ccc(CCNC(=O)c2cccc(C(=O)NCCc3ccc(OC)cc3)n2)cc1`?
HNF4A DNA FP: 4.6; Ecoli growth: 0.7; ALR H2O2 inh: -5; MLL AF4-AF9 inh: 0.2; FGF22 binding: inactive

Results for Cn1c(SCc2cccc(F)c2)nnc1-c1ccccn1 ?
HNF4A DNA FP: 7.0; Vif A3G: -1%; Ecoli growth: 0.7; ALR H2O2 inh: -5

How did Cn1c(N)c(C(=O)COC(=O)c2ccccc2C(=O)c2ccccc2)c(=O)n(C)c1=O do in these assays?
HNF4A DNA FP: 3.5; Vif A3G: inconclusive; Ecoli growth: 0.68; Ecoli rRNA inh: -3; MLL AF4-AF9 inh: 1.4; FGF22 binding: inactive; Ecoli rRNA inh OD600: -1; Ecoli rRNA inh RFP: -2.9

What do the screens show for `O=C(N/N=C/C=N/NC(=O)c1ccco1)c1ccco1`?
HNF4A DNA FP: 0.7; Ecoli rRNA inh: 14; ALR H2O2 inh: -5; MLL AF4-AF9 inh: -0.9; FGF22 binding: inactive; Ecoli rRNA inh OD600: 20; Ecoli rRNA inh RFP: 2.2

Results for O=C(NCCN=C1NS(=O)(=O)c2ccccc21)c1ccco1 ?
HNF4A DNA FP: 5.2; Vif A3G: 2%; Ecoli growth: 0.66; Ecoli rRNA inh: 15; ALR H2O2 inh: -11; MLL AF4-AF9 inh: 2.4; FGF22 binding: inactive; Ecoli rRNA inh OD600: 10; Ecoli rRNA inh RFP: -6.1

What do the screens show for `O=C(c1ccc2c(Cl)c3c(nc2c1)CCCC3)N1CCC(N2CCCCC2)CC1`?
HNF4A DNA FP: 1.5; Vif A3G: -4%; Ecoli growth: 0.68; Ecoli rRNA inh: -9; ALR H2O2 inh: 10; MLL AF4-AF9 inh: 2.5; FGF22 binding: inactive; Ecoli rRNA inh OD600: 0; Ecoli rRNA inh RFP: 17

How did O=C(COc1ncnc2cc([N+](=O)[O-])ccc12)N(CCc1ccccc1)Cc1ccccc1 do in these assays?
HNF4A DNA FP: 6.3; Vif A3G: -8%; Ecoli growth: 0.71; ALR H2O2 inh: -9; MLL AF4-AF9 inh: 1.2; FGF22 binding: inactive

What do the screens show for `COc1ccc2c3c(n(C)c2c1)[C@@H](CO)N(CC1CCCCC1)CC31CN(C(C)=O)C1`?
Ecoli rRNA inh: 5; MLL AF4-AF9 inh: -1.9; FGF22 binding: inactive; Ecoli rRNA inh OD600: -5; Ecoli rRNA inh RFP: 0.7

What do the screens show for `CC(C)NC(=O)N(C)C[C@@H]1Oc2cc(C#CC3CC3)ccc2S(=O)(=O)N([C@H](C)CO)C[C@H]1C`?
Ecoli rRNA inh: -7; MLL AF4-AF9 inh: -3.6; FGF22 binding: inactive; Ecoli rRNA inh OD600: -32; Ecoli rRNA inh RFP: -2.1

How did COC(=O)C[C@H]1CC[C@H]2[C@@H](COc3ccc(NC(=O)c4ccccc4OC)cc3C(=O)N2C)O1 do in these assays?
Ecoli rRNA inh: 1; MLL AF4-AF9 inh: -2.0; FGF22 binding: inactive; Ecoli rRNA inh OD600: -1; Ecoli rRNA inh RFP: -0.9

What do the screens show for `CC(C)=NNc1ncnc2nc[nH]c12`?
HNF4A DNA FP: -0.2; Vif A3G: -2%; MLL AF4-AF9 inh: -2.2; FGF22 binding: inactive

Reprinted from the entries so far (two entries):
How did COC(=O)C[C@H]1CC[C@H]2[C@@H](COc3ccc(NC(=O)c4ccccc4OC)cc3C(=O)N2C)O1 do in these assays?
Ecoli rRNA inh: 1; MLL AF4-AF9 inh: -2.0; FGF22 binding: inactive; Ecoli rRNA inh OD600: -1; Ecoli rRNA inh RFP: -0.9

What do the screens show for `CC(C)=NNc1ncnc2nc[nH]c12`?
HNF4A DNA FP: -0.2; Vif A3G: -2%; MLL AF4-AF9 inh: -2.2; FGF22 binding: inactive

Screening results deposited in PubChem by several laboratories.
